Screens: PubChem BioAssay, several laboratories
HNF4A DNA FP: change in binding of human HNF4A to DNA, primary screen, biochemical, fluorescence polarization, FITC-DNA; 1 h; Hepatocyte nuclear factor 4-alpha (Homo sapiens), P41235; 0.3% of 360,000 active; AID 1224865, 2016; activity change, % at 10 µM; in the data active means activity change above about 30%, passing the limit was not always enough;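 further: controls were the assay level and a saturating level of protein; the project sought stronger binding though the title names inhibitors; some compounds called inactive have numbers as strong as hits; positive values seem to mean higher polarization but the record does not say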
Target sequence (P41235 whole entry, looked up): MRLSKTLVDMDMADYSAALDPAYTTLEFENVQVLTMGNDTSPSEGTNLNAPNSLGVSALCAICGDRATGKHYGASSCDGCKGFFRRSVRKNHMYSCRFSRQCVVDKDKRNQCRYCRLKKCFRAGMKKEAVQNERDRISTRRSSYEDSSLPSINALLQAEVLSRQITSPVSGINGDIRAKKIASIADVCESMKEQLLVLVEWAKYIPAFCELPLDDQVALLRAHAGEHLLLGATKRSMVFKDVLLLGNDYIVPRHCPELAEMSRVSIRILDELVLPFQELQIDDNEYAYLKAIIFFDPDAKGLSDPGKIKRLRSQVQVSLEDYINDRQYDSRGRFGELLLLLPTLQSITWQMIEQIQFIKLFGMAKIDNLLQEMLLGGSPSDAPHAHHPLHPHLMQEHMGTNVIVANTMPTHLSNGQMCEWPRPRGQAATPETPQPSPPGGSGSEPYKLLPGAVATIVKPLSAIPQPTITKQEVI
ALR H2O2 inh: inhibitors of human ALR sulfhydryl oxidase, primary screen, biochemical, H2O2 detection, HRP-luminol luminescence, single point; FAD-linked sulfhydryl oxidase ALR (Homo sapiens), P55789; purified ALR, DTT oxidation; inhibition, % (test concentration not listed); 3.8% of 290,000 active; AID 485317, 2010;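 active means mean and each replicate at 75% or more; inconclusive means only one of the two met; inactive means neither met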;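 further: stock transfer was 7.5 nL into about 7.5 µL; 0% = neutral wells and 100% = wells with inactivated enzyme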
Target sequence (P55789 whole entry, looked up): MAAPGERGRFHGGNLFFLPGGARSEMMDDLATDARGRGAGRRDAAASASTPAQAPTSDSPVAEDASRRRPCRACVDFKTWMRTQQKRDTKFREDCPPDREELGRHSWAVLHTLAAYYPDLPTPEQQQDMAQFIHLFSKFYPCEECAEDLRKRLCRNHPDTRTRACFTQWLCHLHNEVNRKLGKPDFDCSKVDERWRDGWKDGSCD
FGF22 binding: binders of human FGF22 protein, primary screen, FGF22 synaptogenesis inhibitor project, biophysical, thermal shift, single point | Fibroblast growth factor 22 (Homo sapiens), Q9HCT0 | recombinant FGF22 thermal shift, SYPRO orange fluorescence; percent of sucrose octasulfate shift, DMSO zero | calls only at 9.99 µM | 1.5% of 340,000 active;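 active means melting point raised past a set limit in the mean and every replicate; inconclusive means no clear call; three in four hits are not shown here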
Target sequence (Q9HCT0 whole entry, looked up): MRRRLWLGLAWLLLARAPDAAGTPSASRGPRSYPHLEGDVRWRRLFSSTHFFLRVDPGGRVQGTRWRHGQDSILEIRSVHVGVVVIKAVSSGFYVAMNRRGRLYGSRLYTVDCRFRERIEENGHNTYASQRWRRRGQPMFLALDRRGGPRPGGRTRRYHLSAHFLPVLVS
E coli growth: E. coli growth inhibition, primary screen, OD600 | Escherichia coli growth, 23 h; hits give low values | OD600 absorbance (concentration not given with the values) | 0.21% of 330,000 active;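 active means OD600 absorbance below the run mean of sample wells minus 3.6 SD, in any replicate, cut at about 0.56 in these data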;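 further: stock transfer was 300 nL into about 60 µL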
AF4-AF9 inh: inhibitors of AF4 peptide binding to AF9, primary screen, biochemical, AlphaScreen, biotin-AF4 peptide, FLAG-AF9, single point; Protein AF-9 (Homo sapiens), P42568; inhibition, % at 10 µM; 0.47% of 350,000 active;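 active means every replicate reaching a set inhibition limit, whatever the replicate mean, cut at about 25% in these data; inconclusive means mean inhibition reaches that limit but some replicates miss it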;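 further: 0% = plate neutral control median and 100% = total signal loss; the record names both 10 and 1 µM as test concentration; the first replicate is given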
Ecoli rRNA inh: reduced GFP signal of wild-type E. coli, primary screen, bacterial rRNA inhibitor project, GFP/RFP fluorescence, OD600, single point; E. coli WT GFP vs humanized-ribosome RFP mutants, 24 h; hits give low values; DMSO median 0, no signal -100; GFP signal change (wild-type ribosome), % (concentration not given with the values); 1.6% of 350,000 active; AID 720706, 2013;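 active means significant combined selectivity score with lowered wild-type GFP, culture density cut under 30%, mutant RFP and density less affected; inactive means any of these conditions unmet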; further: one replicate is shown; some compounds called inactive have numbers as strong as hits
Vif A3G: inhibitors of Vif binding to APOBEC3G peptide, primary screen, biochemical, TR-FRET, GST-Vif 1-94, biotin-A3G peptide, dose response retest (AID 1117319). Virion infectivity factor (Human immunodeficiency virus type 1 group M subtype B (isolate …. inhibition, %; hits with a dose series show IC50 in µM. TR-FRET GST-Vif / biotin-A3G peptide binding; higher % means a stronger effect; test concentration not given here; strong numbers were not always called active. 0.57% of 260,000 active;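 active means above the screen mean plus three standard deviations and confirmed in dose response; inconclusive means results disagree or hit not tested in dose response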;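 further: Vif residues 1-94 fused to GST binding biotinylated APOBEC3G peptide 110-148; 0% = full assay without inhibitor and 100% = GST in place of GST-Vif; retest series ran down from 100 µM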
Ecoli rRNA inh OD600: further read-out of Ecoli rRNA inh, marked with its call; OD600 change, %; measured here: OD600 growth;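 optical density of the mix in the first replicate; 0 = DMSO median and -100 = no signal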
Ecoli rRNA inh RFP: recorded beside Ecoli rRNA inh, whose call it bears; RFP signal change, %; measured here: RFP humanized mutant strains;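 first replicate; 0 = DMSO median and -100 = no signal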
An asterisk follows results filed as active; i = inactive; ? = inconclusive; / = no result given; & = joins results of further samples. Only part of the results is shown (hit frequency here may not be typical).

SMILES	HNF4A DNA FP	ALR H2O2 inh	FGF22 binding	E coli growth	AF4-AF9 inh	Ecoli rRNA inh	Ecoli rRNA inh OD600	Ecoli rRNA inh RFP	Vif A3G
CCN(CC)c1nc(NNC(=O)c2ccccc2)nc(N(CC)CC)n1	1.5	/	i	/	2.1	-8	-15	-2.6	-5%
CC(=O)C1=C(O)C(=O)N(c2ccc(Br)cn2)C1c1ccc(Br)cc1 (stereo not drawn)	3.8	97*	i	0.61	/	-7	-5	1.6	-15%
COCCn1c(C)nnc1SCC(=O)NNC(=O)c1ccc(Br)cc1	1.6	/	i	0.66	2.5	4	14	-1.1	10%
O=C(NC1CCCC1)N[C@@H]1CC[C@H](CC(=O)N2CCOCC2)O[C@H]1CO	/	/	i	/	2.4	2	-2	0.8	/
CCc1nnc(NC(=O)c2ccc(COc3ccccc3Cl)o2)s1	0.4	-8	i	0.65	1.6	2	9	0.4	/
O=C(NNc1nc2ccccc2o1)c1ccccc1	0.3	59	i	0.69	2.1	21	5	0.3	/
CC1(C(=O)NS(=O)(=O)c2ccc(F)cc2F)CCN1C(=O)c1ccccc1CCc1ccccc1 (stereo not drawn)	-0.4	/	i	/	-1.3	-6	1	0.7	/
CC(C)C1Oc2ccccc2N(CC(=O)N(Cc2ccncc2)Cc2ccco2)C1=O (stereo not drawn)	1.2	-1	/	0.75	/	/	/	/	?
O=C(C[C@H]1C[C@@H]2c3cc(NC(=O)C4CCC4)ccc3O[C@@H]2[C@H](CO)O1)NCc1ccc2c(c1)OCO2	/	/	i	/	0.3	-3	-6	-0.6	/
COc1ccc(OC)c(-n2cc3c(=O)n(C)c(=O)n(C)c3c2)c1	-1.9	-18	/	0.74	/	/	/	/	31%
Cc1ccc(C(=O)C[n+]2ccc(-c3nnc4n3CCC4)cc2)cc1	0.3	-81	/	0.62	/	/	/	/	4%
Cc1ccccc1N1CCN(C2CCCN(C(=O)CCN3CCCCC3=O)C2)CC1 (stereo not drawn)	0.9	9	i	0.62	-6.5	3	1	-2.5	/
O=C(NCC[C@@H]1CC[C@H](NC(=O)C2CCCCC2)[C@@H](CO)O1)c1cc(Cl)cc(Cl)c1	/	/	i	/	-0.8	-8	-13	-0.1	/
O=C(CSc1ccc(-c2ccco2)nn1)NCc1ccc2c(c1)OCO2	-2.2	4	i	0.72	0.1	8	-2	0.1	-6%
COc1cc(NC(=O)c2nccnc2C(=O)O)cc(OC)c1	0.0	-23	i	0.74	0.0	9	12	-0.4	10%
C[C@H]1CN([C@@H](C)CO)C(=O)c2cccc(NC(=O)NC3CCCCC3)c2O[C@H]1CN(C)S(=O)(=O)c1cn(C)cn1	/	/	i	/	-3.0	3	9	-1.7	/
COc1ccc(Cl)cc1-c1n[nH]c(=S)o1	0.2	46	/	0.69	/	/	/	/	-83%
CN(C)c1ccc(/C=C2\N=C(c3ccc(Cl)c([N+](=O)[O-])c3)NC2=O)cc1	23	-9	/	0.79	/	/	/	/	17%
COc1ccc(S(=O)(=O)N(C)C[C@H]2OCCCC[C@@H](C)Oc3ccc(NS(=O)(=O)c4cccs4)cc3C(=O)N([C@H](C)CO)C[C@@H]2C)cc1	/	/	i	/	-2.6	3	11	3.0	/
C=CCOc1c(Br)cc(/C=N\n2nnnc2N)cc1OC	3.1	-1	/	/	/	/	/	/	8%

The final two records of the section above are carried over, then new ones follow.
SMILES	HNF4A DNA FP	ALR H2O2 inh	FGF22 binding	E coli growth	AF4-AF9 inh	Ecoli rRNA inh	Ecoli rRNA inh OD600	Ecoli rRNA inh RFP	Vif A3G
COc1ccc(S(=O)(=O)N(C)C[C@H]2OCCCC[C@@H](C)Oc3ccc(NS(=O)(=O)c4cccs4)cc3C(=O)N([C@H](C)CO)C[C@@H]2C)cc1	/	/	i	/	-2.6	3	11	3.0	/
C=CCOc1c(Br)cc(/C=N\n2nnnc2N)cc1OC	3.1	-1	/	/	/	/	/	/	8%
CS(=O)(=O)Nc1nc2n(n1)C(c1ccc(F)cc1)CC(c1ccccc1)N2 (stereo not drawn)	-0.8	0	i	0.69	0.0	8	6	0.3	29%
CC(OC(=O)c1ccccn1)C(=O)Nc1ccc(C(F)(F)F)cc1 (stereo not drawn)	7.8	-2	i	0.67	-0.4	/	/	/	3%
Cc1ccc(OCC(=O)N2CCc3ccccc3C2)cc1C	-3.3	/	i	/	-1.4	-6	-4	-0.4	2%
Cc1ccc(S(=O)(=O)/C(C#N)=C/c2c(N3CC(C)OC(C)C3)nc3ccccn3c2=O)cc1 (stereo not drawn)	-3.2	10	/	0.68	/	/	/	/	-4%
Cc1noc(C)c1NC(=O)Nc1cccc2c1O[C@H](CN(C)C(=O)Nc1ccc(C(F)(F)F)cc1)[C@@H](C)CN([C@@H](C)CO)C2=O	/	/	i	/	-0.6	-2	-3	-1.0	/
Cc1ccc(C(=O)Nc2ccc3nccnc3c2)cc1	2.1	-20	/	0.7	/	/	/	/	-3%
O=C(CSc1nc(-c2ccccc2)cs1)N1CCN(C(=O)c2ccco2)CC1	-2.3	-7	/	0.67	/	/	/	/	-4%
COc1cccc(OC)c1OCCN1CCCC1	-2.3	-6	i	0.65	-2.6	0	4	-2.3	/
COc1cc(CNCCO)cc(Br)c1OCc1ccccc1	-0.2	7	i	0.67	2.4	1	-10	-4.3	/
C[C@H](CO)N1C[C@H](C)[C@@H](CN(C)S(=O)(=O)c2cccs2)Oc2ccc(NC(=O)NC3CCCCC3)cc2C1=O	3.2	1	i	/	-1.0&-0.5	-11&-11	-12&7	-1.9&9.3	/
Cc1ccc(C(C)C)c(OCC(=O)NNC(=O)CC2OC(=O)c3ccccc32)c1 (stereo not drawn)	3.1	-3	i	0.65	1.5	-5	4	2.1	-1%
O=C(CSCc1cnn(-c2ccccc2)c1-n1cccc1)NCC1CCCO1 (stereo not drawn)	-3.6	-5	/	0.74	/	/	/	/	5%
COc1ccccc1N1CCN(C2CCN(C(=O)c3cc(OC)c(OC)c(OC)c3)CC2)CC1	-3.1	-5	/	0.71	/	/	/	/	7%&19%
O=C(O)COc1ccccc1/C=N/NC(=O)CSc1nnc(-c2ccc(Cl)cc2)n1C1CCCCC1	-2.3	-5	i	/	0.5	-3	0	-7.2	8%
CCC(=O)Nc1ccc2c(c1)C(=O)N(C)C[C@H](OC)[C@H](C)CN(CC1CCCCC1)[C@@H](C)CO2	/	/	i	/	0.0	-1	-2	-1.4	/
CC[C@]12c3[nH]c4cc(-c5ccco5)ccc4c3CCN1C(=O)[C@@H](CC(=O)NCCN1CCOCC1)C[C@@H]2C(=O)N1CCN(C(=O)C2CC2)CC1	2.4	/	i	0.72	0.0	3	18	2.5	/
CCCCC(=O)Nc1ccc(N2CCN(S(C)(=O)=O)CC2)cc1	-7.0	-6	/	0.73	/	/	/	/	13%
CCOC(=O)CC[C@H](NC(=O)Cn1cnc(C(=O)Nc2ccc(C)c(C)c2)n1)C(=O)OCC	0.3	/	i	0.72	-3.2	16	13	8.5	6%
COC(=O)C[C@@H]1CC[C@H]2[C@@H](COC[C@H](O)CN2S(=O)(=O)c2ccccc2OC)O1	/	/	i	/	-1.7	0	5	-3.4	/
CCOC(=O)C1(CC2CC2)CCN(Cc2cc(Cl)c(O)c(OC)c2)CC1	2.1	1	i	0.67	3.5	12	9	-1.0	8%

Whole records, quoted from the list.
Results for CCOC(=O)C1(CC2CC2)CCN(Cc2cc(Cl)c(O)c(OC)c2)CC1 : HNF4A DNA FP = 2.1; ALR H2O2 inh = 1; FGF22 binding = i; E coli growth = 0.67; AF4-AF9 inh = 3.5; Ecoli rRNA inh = 12; Ecoli rRNA inh OD600 = 9; Ecoli rRNA inh RFP = -1.0; Vif A3G = 8%
Results for Cc1ccc(C(C)C)c(OCC(=O)NNC(=O)CC2OC(=O)c3ccccc32)c1 (stereo not drawn) : HNF4A DNA FP = 3.1; ALR H2O2 inh = -3; FGF22 binding = i; E coli growth = 0.65; AF4-AF9 inh = 1.5; Ecoli rRNA inh = -5; Ecoli rRNA inh OD600 = 4; Ecoli rRNA inh RFP = 2.1; Vif A3G = -1%

(further entries)
SMILES	HNF4A DNA FP	ALR H2O2 inh	FGF22 binding	E coli growth	AF4-AF9 inh	Ecoli rRNA inh	Ecoli rRNA inh OD600	Ecoli rRNA inh RFP	Vif A3G
O=C(O)C1Cc2ccccc2CN1C(=O)COc1ccc(Br)cc1 (stereo not drawn)	-6.4	1	i	0.71	-0.5	4	3	-0.5	-9%
Cc1ccc(/C=C/C(=O)OCC(=O)N(C)c2c(N)n(Cc3ccccc3)c(=O)[nH]c2=O)o1	3.2	/	i	/	-16	10	12	2.9	/
C=CCOc1cccc(C2c3c(oc4ccc(F)cc4c3=O)C(=O)N2CCCN2CCOCC2)c1 (stereo not drawn)	-1.8	29	i	0.75	3.2	9	5	3.3	-2%
C[C@H]1CN([C@@H](C)CO)C(=O)c2cc(NC(=O)CCCN(C)C)ccc2O[C@H]1CN(C)CC1CC1	/	/	i	/	0.8	6	17	-1.6	/
CC1CCN(CCCN2C(=O)C3C(C(=O)Nc4ccc(Cl)cc4)C4C=CC3(O4)C2C(=O)NC2CCCCC2)CC1 (stereo not drawn)	0.9	1	i	0.67	3.7	5	3	0.5	/
O=C(CN1CCN(Cc2ccccc2)CC1)N/N=C/c1cccnc1	1.2	-1	i	/	1.4	9	5	-3.2	-8%
Fc1ccccc1NC(=S)Nc1cccnc1	1.0	18	i	0.69	-3.5	11	9	1.5	-5%
Cc1ccc(-c2ccc(CCC(=O)O)n2-c2cccc(O)c2)cc1	7.0	63	/	0.77	/	/	/	/	21%
O=C(NCCN1C(=O)S/C(=C\c2ccc(OC(F)F)cc2)C1=O)[C@@H]1CCCN1C(=O)c1cccs1	0.6	2	i	0.7	5.2	/	/	/	/
CC(C)C#Cc1ccc2c(c1)O[C@@H](CN(C)C)[C@@H](C)CN([C@@H](C)CO)S2(=O)=O	/	/	i	/	1.4	2	3	0.7	/
CCCNC(=O)[C@H]1[C@H](CO)[C@H]2Cn3c(ccc(C4=CCCCC4)c3=O)[C@@H]1N2	/	/	i	/	1.8	2	5	0.4	/
COc1cccc(NC(=O)Cc2cn(C)c3ccccc23)c1	-0.8	-4	/	0.7	/	/	/	/	7%
S=C1NC(C23CC4CC(CC(C4)C2)C3)=CC(c2ccc3c(c2)OCO3)N1 (stereo not drawn)	1.8	-20	i	/	-1.9	-21	-42	-5.0	3%
CCCn1c(O)c(C=Nc2ccccc2)sc1=S	5.1	-1	i	0.63	3.4	0	2	-7.5	-13%
CC(=O)N1CCCCN2[C@H](CO)[C@H](c3ccc(-c4ccncc4)cc3)[C@@H]2C1	/	/	i	/	-5.4	3	0	2.0	/
COc1ccc(C(=O)N/C(=C\c2ccccc2)C(=O)Nc2ccccc2C(=O)O)cc1	-2.2	7	i	0.7	-5.1	-11	-4	0.5	/
O=C(Nc1cccc(S(=O)(=O)N2CCCC2)c1)c1ccccc1OC(F)F	3.7	-6	i	0.68	-9.5	-4	-10	-1.6	/
CN1CCN(P(=O)(c2ccccc2)c2nc3ccccc3s2)CC1 (stereo not drawn)	0.6	-2	/	0.63	/	/	/	/	-2%
COCC(=O)Nc1ccc2c(c1)C(=O)N(C)[C@H]1CC[C@H](CC(=O)NCc3ccccc3F)O[C@H]1CO2	/	/	i	/	-8.7	3	4	-2.3	/
